From PubChem
Beta apoptosis = inhibitors of cytokine-induced beta cell apoptosis, primary screen, luminescence; protection from apoptosis, % (test concentration not listed); AID 435005, 2010; hit rate 0.8% among 300,000; INS-1E cytokine-induced death, ATP luminescence, 48 h; percent of positive-control rescue, neutral wells zero;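 active means all replicates at 75% or more, or half of them and the mean; inconclusive means half reach 75% but not the mean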;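 further: 0% = cytokine-treated negative control wells and 100% = positive control rescue; higher means more ATP so stronger rescue from cytokine killing; wells of about 40 µL received 100 nL stock; the first replicate is given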
MLL AF4-AF9 inh = inhibitors of AF4 peptide binding to AF9, primary screen, biochemical, AlphaScreen, biotin-AF4 peptide, FLAG-AF9, single point; Protein AF-9 (Homo sapiens), P42568; inhibition, % at 10 µM; hit rate 0.47% among 350,000; AID 651704, 2012;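 active means every replicate reaching a set inhibition limit, whatever the replicate mean, cut at about 25% in these data; inconclusive means mean inhibition reaches that limit but some replicates miss it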;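 further: 0% = plate neutral control median and 100% = total signal loss; the record names both 10 and 1 µM as test concentration; the first replicate is given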
Bfl-1 A1 inh = caspase 3/7 activation in MEF A1-2A-BIM cells, primary screen, A1 inhibitor project, cell-based, luminescence, HTS; caspase activation, % (test concentration not listed); Caspase-Glo 3/7 luminescence, 3 h; percent of clofoctol response, vehicle zero; hit rate 0.066% among 330,000;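 active means over half of replicate activation scores above 10%, or exactly half above 10 with the replicate mean above 10; inconclusive means replicate mean below 10 yet half the replicates above 10; inactive means over half of replicates below 10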;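 further: wells of about 30 µL received 50 nL stock; many hits fall short of the cut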
Vif A3G = inhibitors of Vif binding to APOBEC3G peptide, primary screen, biochemical, TR-FRET, GST-Vif 1-94, biotin-A3G peptide, dose response retest (AID 1117319) | hit rate 0.57% among 260,000 | TR-FRET GST-Vif / biotin-A3G peptide binding; higher % means a stronger effect; test concentration not given here; strong numbers were not always called active | Virion infectivity factor (Human immunodeficiency virus type 1 group M subtype B (isolate … | inhibition, %; hits with a dose series show IC50 in µM;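 active means above the screen mean plus three standard deviations and confirmed in dose response; inconclusive means results disagree or hit not tested in dose response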;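 further: Vif residues 1-94 fused to GST binding biotinylated APOBEC3G peptide 110-148; 0% = full assay without inhibitor and 100% = GST in place of GST-Vif; retest series ran down from 100 µM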
LANA-H2B inh = blockers of LANA interaction with H2A/H2B – biochemical, FP readout, HTS, primary screen; Protein LANA1 (Human herpesvirus 8 type P (isolate GK18)), Q9QR71; hit rate 0.6% among 320,000; cell-free LANA-H2A/H2B peptide, fluorescence polarization; inhibition, % (test concentration not listed); in the data active means inhibition mostly above about 10%, no sharp cut-off; inactive means mostly below about 6.7%;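 further: stock transfer was 7.5 nL into about 10 µL; 0% = median of vehicle wells and 100% = median of positive control wells; one replicate is shown; the record names a cut of 25% in any replicate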
Target sequence (Q9QR71 whole entry, looked up): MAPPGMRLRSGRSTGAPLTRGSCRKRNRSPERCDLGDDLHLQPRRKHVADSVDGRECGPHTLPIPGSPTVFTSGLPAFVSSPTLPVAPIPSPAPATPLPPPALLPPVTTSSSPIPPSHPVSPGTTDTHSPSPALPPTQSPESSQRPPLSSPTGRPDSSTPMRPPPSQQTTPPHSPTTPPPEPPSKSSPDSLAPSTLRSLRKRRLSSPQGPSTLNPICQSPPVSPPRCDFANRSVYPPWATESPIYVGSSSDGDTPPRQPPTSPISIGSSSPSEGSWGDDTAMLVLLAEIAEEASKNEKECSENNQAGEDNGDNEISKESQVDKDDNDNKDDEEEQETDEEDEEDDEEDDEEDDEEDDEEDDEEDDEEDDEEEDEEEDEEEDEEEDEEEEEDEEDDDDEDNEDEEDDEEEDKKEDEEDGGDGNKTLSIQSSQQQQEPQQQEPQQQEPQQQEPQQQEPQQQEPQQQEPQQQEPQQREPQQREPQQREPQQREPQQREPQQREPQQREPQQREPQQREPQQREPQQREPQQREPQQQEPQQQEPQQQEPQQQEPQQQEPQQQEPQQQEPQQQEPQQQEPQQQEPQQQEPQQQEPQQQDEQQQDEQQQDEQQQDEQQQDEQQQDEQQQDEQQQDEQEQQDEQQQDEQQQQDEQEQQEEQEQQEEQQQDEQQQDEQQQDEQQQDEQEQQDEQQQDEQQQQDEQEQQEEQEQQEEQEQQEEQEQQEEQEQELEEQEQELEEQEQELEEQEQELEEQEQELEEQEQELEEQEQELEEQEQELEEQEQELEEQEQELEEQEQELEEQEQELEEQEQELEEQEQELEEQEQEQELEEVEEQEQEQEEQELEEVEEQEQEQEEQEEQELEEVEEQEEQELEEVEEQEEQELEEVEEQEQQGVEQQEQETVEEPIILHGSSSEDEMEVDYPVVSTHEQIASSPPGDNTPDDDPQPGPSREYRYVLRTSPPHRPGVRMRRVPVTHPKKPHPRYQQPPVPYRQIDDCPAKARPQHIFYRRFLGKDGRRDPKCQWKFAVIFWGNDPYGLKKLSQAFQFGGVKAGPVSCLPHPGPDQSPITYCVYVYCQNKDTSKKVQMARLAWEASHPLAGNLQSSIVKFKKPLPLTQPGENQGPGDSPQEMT
T cruzi inh = inhibitors of intracellular T. cruzi growth, primary screen, luminescence, NIH3T3 host cells. T. cruzi beta-gal in NIH3T3, 90 h. AID 1885, 2009. inhibition, % (concentration not given with the values). hit rate 1.4% among 300,000;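 active means mean inhibition across valid replicates above about 55%, limit read from the data; inconclusive means mean below that limit but half or more replicates reach it; inactive means mean below it, under half of replicates reach it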;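 further: signal also drops with host cell toxicity which is not excluded here; 0% = plate median of DMSO wells and 100% = zero luminescence signal; higher percent means less beta-gal luminescence so fewer parasites; stock transfer was 50 nL into about 50 µL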
Calb FLC = C. albicans growth inhibition with fluconazole, primary screen, CaCi-2 strain, Alamar Blue fluorescence; hit rate 0.57% among 300,000; growth inhibition, % (test concentration not listed); C. albicans CaCi-2 (fluconazole-resistant clinical isolate) + fluconazole, 48 h; AID 1979, 2009;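 active means most replicates above 75%; inconclusive means exactly half above 75%; inactive means most below 75%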;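 further: all wells also contain fluconazole at 8 µg/ml as a sub-toxic cotreatment; 0% = median of DMSO wells and 100% = median of geldanamycin control wells; wells of about 8 µL received 7.5 nL stock; the first replicate is given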
RanGTP-Impb inh = inhibitors of RanGTP-importin-beta interaction, primary screen, biochemical, FRET, CFP-Ran, YFP-importin-beta, homogeneous; inhibition, % (test concentration not listed); cell-free CFP-Ran/YFP-importin-beta FRET ratio; Ran GTPase (GTP-bound) - importin-beta complex; hit rate 1.1% among 300,000;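 active means most replicates above 15%; inconclusive means exactly half above 15%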;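 further: 0% = DMSO wells and 100% = Ran loaded with GDP instead of GTP; wells of about 40 µL received 100 nL stock; the first replicate is given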
* hit, by the source's call; u = inconclusive; x = not tested or not shown.

SMILES | Beta apoptosis | MLL AF4-AF9 inh | Bfl-1 A1 inh | Vif A3G | LANA-H2B inh | T cruzi inh | Calb FLC | RanGTP-Impb inh
Cc1cc(C)c2cc3c(ccn3C3OC[C@H](O)[C@H](O)[C@H]3O)cc2n1 (stereo partly drawn) | 11 | x | 0.0 | 10% | 0.6 | -4 | -11 | -110
COc1ccc2oc(-c3ccco3)cc(=O)c2c1 | 4 | -3.4 | -6.9 | -2% | -12 | 12 | -12 | 2.9
COc1ccc(C(CNC(=O)C(CCSC)NC(=O)c2ccccc2Cl)N2CCOCC2)cc1 (stereo not drawn) | 4 | -0.3 | 1.6 | 6% | 3.3 | -2 | -1 | -0.1
COc1ccc(CNC(=O)CN2CCN(c3ccc(F)cc3)CC2)cc1 | 7 | -2.2 | -0.8 | -1% | -1.8 | 8 | 1 | -1.1
COC(=O)c1ccc(/C=N/NC(=O)CC(=O)NCC(C)C)cc1 | -6 | x | -0.5 | 4% | 1.5 | -5 | -6 | -3.6
O=C(CSc1nnc(C2CC2)n1-c1ccccc1)Nc1ccc(N2CCOCC2)cc1 | 2 | x | -0.2 | 19% | 4.0 | 2 | -3 | u
CCN1CCCC1CNC(=O)c1ccccc1Cl (stereo not drawn) | 4 | x | -0.4 | 5% | 5.0 | -1 | 4 | -1.4
O=C(COC(=O)/C=C/c1ccc([N+](=O)[O-])cc1)NCC1CCCO1 (stereo not drawn) | -3 | -0.7 | -0.5 | 1% | 4.1 | 37 | 1 | -2.6
Cc1cccc(C(=O)N=c2c(C#N)cc3c(=O)n4cccc(C)c4nc3n2Cc2ccco2)c1 | -4 | -15 | -2.3 | u | 6.8 | 5 | 27 | 112*
CC(=O)c1ccccc1C(=O)N1CCCC(C(=O)c2ccc(C(F)(F)F)cc2)C1 (stereo not drawn) | 6 | -1.6 | -0.7 | x | 2.6 | 7 | 3 | 5.7
O=C(COC(=O)Cc1n[nH]c(=O)c2ccccc12)Nc1ncc(Cl)cc1Cl | -5 | -1.0 | -0.4 | 9% | -3.5 | x | x | x
CCCCOC(=O)/C=C\C(=O)NC(N)=O | -17 | x | 0.5 | -4% | -4.8 | -31 | 15 | -3.7
COc1ccc(-n2nc(C(=O)NCC(=O)N3CCCCC3)c3ccccc3c2=O)cc1 | 1 | -1.7 | 0.0 | x | -2.9 | 0 | -3 | 1.7
CCC(=O)Nc1cc2c(C)cc(=O)oc2cc1C | -1 | x | 0.9 | 2% | -3.6 | -3 | -2 | 0.5
N#Cc1c(N)n[nH]c1Cc1cccc2ccccc12 | -3 | -3.5 | 1.0 | x | -0.9 | -8 | 6 | 9.7

Continued; the last two above are carried over.
SMILES | Beta apoptosis | MLL AF4-AF9 inh | Bfl-1 A1 inh | Vif A3G | LANA-H2B inh | T cruzi inh | Calb FLC | RanGTP-Impb inh
CCC(=O)Nc1cc2c(C)cc(=O)oc2cc1C | -1 | x | 0.9 | 2% | -3.6 | -3 | -2 | 0.5
N#Cc1c(N)n[nH]c1Cc1cccc2ccccc12 | -3 | -3.5 | 1.0 | x | -0.9 | -8 | 6 | 9.7
COc1cc(C(=O)NCCC(=O)NCCN2CCOCC2)cc(OC)c1OC | -10 | -40 | 0.2 | 16% | -1.2 | -13 | -3 | 4.3
CCN(CC)C(=O)CSc1nnc(CCN)o1 | 1 | x | u | 5% | -7.2 | x | x | x
O=C1C2C3C=CC(C3)C2C(=O)N1c1ccncc1 (stereo not drawn) | 4 | x | -0.1 | -4% | 6.2 | -3 | 1 | 0.8
O=C(NCc1ccco1)C(C(=O)c1ccc(F)cc1)n1ccccc1=O (stereo not drawn) | -5 | x | -0.4 | 3% | 3.6 | -8 | 16 | 3.1
COc1ccc(N2CCN(CC(=O)NC(=O)NCc3ccco3)CC2)cc1 | 1 | x | 3.0 | x | -0.6 | -6 | -8 | 1.4
COc1cc(OC)cc(C(=O)NNC(=O)c2ccc(-n3cncn3)c([N+](=O)[O-])c2)c1 | 0 | -0.4 | 0.1 | 10% | -3.4 | -6 | -2 | 0.7
Cc1cccc(NC(=O)CC23CC4CC(C2)CC(n2nnc(C)n2)(C4)C3)c1 | -5 | -1.3 | -0.1 | 2% | 0.3 | 16 | 10 | 1.1
COc1ccc(-c2c(-c3ccc(C#N)cc3)oc(=O)c3cc(OC)c(OC)cc23)cc1 | 15 | 0.9 | 0.6 | x | 2.2 | x | x | x
CCCc1nnc(SCC(=O)Nc2ccc(NC(C)=O)cc2)n1-n1cccc1 | -5 | -1.0 | 1.9 | 3% | -1.4 | 2 | 12 | 4.6
Cc1ccc(-n2nc3ccc(NC(=O)c4ccc5c(c4)OCO5)cc3n2)cc1 | 4 | x | 1.1 | 1% | -4.2 | -40 | 5 | 5.2
O=C(NCC(=O)N1CCN(S(=O)(=O)/C=C/c2ccccc2)CC1)c1ccccc1F | 0 | -4.3 | -0.2 | x | 2.6 | 3 | 14 | -1.5
c1ccc(N2CCN(C3CC4CCC3C4)CC2)cc1 (stereo not drawn) | 0 | -1.5 | -2.2 | x | 2.3 | -3 | -4 | -1.4
N/C(=N\OC(=O)c1ccc(Cl)cc1)c1cccnc1 | -1 | x | 0.2 | 6% | 1.8 | 4 | 10 | 0.2
CC(=O)N1CC2(NC(=O)c3ccccc3N2)c2ccccc21 (stereo not drawn) | -4 | -2.5 | 0.4 | -11% | -6.4 | -2 | 9 | 3.2
Cc1cc(C)nc(NS(=O)(=O)c2ccc(NC(=O)CN3C(=O)c4ccccc4C3=O)cc2)n1 | -9 | x | -0.1 | 0% | -3.9 | -3 | 0 | -2.3
CCOc1cccc(OCCCNCCCOC)c1 | -8 | x | 2.1 | 18% | 3.8 | -22 | -1 | 3.2
O=C(OCC(O)C(O)COC(=O)c1ccccc1)c1ccccc1 (stereo not drawn) | -4 | -1.4 | -0.5 | 6% | -4.0 | x | 9 | x
Cc1ccc(C(C(=O)NC2CCCCC2)N(C(=O)c2csnn2)C2CCCC2)o1 (stereo not drawn) | 3 | x | -0.5 | 2% | -1.3 | 13 | -1 | 0.4
CCOC(=O)c1cnc2c(CC)cccc2c1NCCN1CCOCC1 | 7 | 2.6 | -1.0 | x | 2.0 | 11 | 3 | u
CC1CCN(C(=O)c2ccc3ccccc3c2)CC1 | -1 | -1.5 | 0.7 | x | 2.8 | 10 | -3 | -0.6
COCc1ccc(CN2CCC(n3nccc3NC(=O)CCCc3ccccc3)CC2)o1 | -2 | 0.3 | 0.2 | x | 2.4 | 15 | 11 | 1.8
COc1ccc(CCNC(=O)c2c(C)noc2C)cc1 | -2 | 1.3 | -0.2 | 1% | 2.3 | -14 | -4 | 3.9
COc1ccc(-c2c(C#Cc3ccsc3)c3cc(-c4ccc(C(N)=O)cc4)ccc3n2C)cc1 | -1 | -70 | 0.6 | x | -3.4 | x | x | x
COc1ccc2[nH]c(=O)c(CN(C(=O)c3cccnc3)c3ccc(C)cc3C)cc2c1 | 2 | -3.7 | 0.2 | 2% | -316 | 8 | 7 | -1.9
Cc1ccc(NC(=O)COC(=O)CCc2ccccc2)c(Cl)c1 | 0 | u | 0.1 | -7% | 1.4 | -10 | -6 | 3.1
COc1ccc(/C=N/NS(=O)(=O)c2ccccc2)cc1OC | x | -4.1 | 0.4 | 2% | -3.0 | -8 | 2 | -1.3
CCOC(=O)C1(Cc2cccc(Cl)c2)CCCN(C(=O)c2cc(C)on2)C1 (stereo not drawn) | -5 | -0.9 | 0.4 | x | 3.6 | -3 | 13 | -3.3
COc1cc2c(C(=O)N3CCN(c4cccc(Cl)c4)CC3)cn(C)c(=O)c2cc1OC | x | x | -1.2 | 10% | -0.5 | 9 | -11 | 9.4
Cc1ccc2c(c1)C(C)CC(C)(C)N2C(=O)CN1CCN(C)CC1 (stereo not drawn) | -1 | -7.2 | 1.8 | 8% | -0.8 | -26 | 5 | 5.5
CCO[C@@H]1OC(C(=O)N2CCN(Cc3ccccc3)CC2)=C[C@H](c2coc3ccccc3c2=O)[C@H]1CCCO | 6 | 1.6 | 0.3 | x | -0.9 | 8 | -27 | 2.9
CCc1ccc(NC(=O)C2CCN(S(=O)(=O)c3ccc4c(c3)NC(=O)C(C)S4)CC2)cc1 (stereo not drawn) | 35 | 1.3 | -0.9 | x | -2.8 | 2 | 7 | 3.7
Cc1ccc(NC(=O)COC(=O)C2(CC(=O)NC(C)(C)C)CCCC2)cc1C | 0 | -1.8 | 0.6 | 1% | 7.3 | x | x | x
CCOc1ccccc1NC(=O)c1ccccc1N(C)S(=O)(=O)c1ccc(C)cc1 | 2 | x | -0.1 | x | -0.8 | 11 | 7 | 4.3
Cc1c(C(=O)c2ccccc2)c2ccccn2c1CCc1ccccn1 | 5 | 11 | 0.6 | u | 9.5 | 23 | 17 | 2.9
CCc1nn(CCCC(=O)N(C)Cc2ccccc2)c(=O)c2cc3occc3n12 | 0 | -0.3 | 0.1 | -1% | 1.0 | 14 | -17 | 0.6
COC(=O)[C@H](CC(C)C)NC(=O)NCCC1=CCCCC1 | -8 | -1.1 | -0.2 | -2% | 1.4 | 3 | -4 | 2.9
CC(=O)c1sc(-c2ccc(F)cc2)cc1NS(=O)(=O)c1ccc(C)cc1 | -6 | x | 0.6 | x | -0.4 | -11 | -3 | 1.0
COc1cccc(NC(=O)c2cnc(SCC(=O)NCc3ccc4c(c3)OCO4)n(C)c2=O)c1 | x | -7.8 | -0.5 | -12% | -5.4 | 2 | -4 | 1.0
O=C1CC(C(=O)N2CCN(c3ccccn3)CC2)CN1Cc1ccccc1Cl (stereo not drawn) | -5 | 0.2 | 0.7 | -1% | -2.4 | -7 | 5 | -1.7
Cc1ccc(Nc2nc(CSc3nnc(-c4ccc(F)cc4)n3C)cs2)cc1 | -5 | x | -0.4 | x | -1.8 | -1 | -5 | -0.5
Cc1cccc(S(=O)(=O)N2CN(CC3CCCO3)c3nc4ccccc4nc32)c1 (stereo not drawn) | -1 | 2.8 | 1.1 | x | 2.7 | 2 | x | 0.8
O=C(c1ccncc1)c1nccn1-c1ccccn1 | x | x | 1.0 | 2% | -4.4 | -7 | -1 | 0.7
Cc1nnc(N/N=C/c2c[nH]c3ccccc23)[nH]c1=O | 0 | -12 | -0.2 | x | -1.4 | -1 | 10 | 0.5
N#CCCN(Cc1ccccc1)C(=O)Nc1ccc2c(c1)CCO2 | -2 | -1.8 | 0.1 | x | -4.7 | -3 | -6 | -0.6
COc1ccc(N2CCN(C(=O)c3cc(C)oc3C)CC2)cc1 | -4 | -2.8 | 0.7 | x | 0.3 | -7 | 10 | 0.8
CCOc1ccccc1C1CC(=O)NC2=C1C(=O)CC(C)(C)C2 (stereo not drawn) | -2 | x | -0.5 | -5% | 1.9 | 14 | -1 | -3.4
